D2 potentiator: human D2 receptor positive allosteric modulation. P14416. DiscoveRx D2 beta-arrestin cells, luminescence, 90 min; 100% = 57 uM dopamine signal. potentiation, % (concentration not given with the values). 0.23% of 360,000 active; active = potentiation of 50% or more; inconclusive = 30% to 50%; inactive = 30% or less;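 further: compound concentration not given in the record; tested on top of an EC20 dose of dopamine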
Target sequence (P14416 whole entry, looked up): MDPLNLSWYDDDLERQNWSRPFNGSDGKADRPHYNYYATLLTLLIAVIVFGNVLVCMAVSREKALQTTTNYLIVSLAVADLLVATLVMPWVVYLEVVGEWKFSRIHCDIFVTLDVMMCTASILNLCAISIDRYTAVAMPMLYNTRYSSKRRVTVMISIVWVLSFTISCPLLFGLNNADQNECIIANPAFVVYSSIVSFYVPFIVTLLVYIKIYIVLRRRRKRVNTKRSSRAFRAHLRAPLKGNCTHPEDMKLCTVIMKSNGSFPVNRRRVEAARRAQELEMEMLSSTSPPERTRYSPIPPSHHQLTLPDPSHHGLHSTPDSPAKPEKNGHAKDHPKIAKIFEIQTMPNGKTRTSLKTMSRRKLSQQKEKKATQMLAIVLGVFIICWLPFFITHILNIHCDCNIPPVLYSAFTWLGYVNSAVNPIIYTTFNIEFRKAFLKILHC
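D2 cells co-treated with compound plus 50 nM dopamine (EC20) for 90 min at 37 deg C to detect potentiation. Beta-arrestin recruitment was read as enzyme-fragment luminescence after 1 h at ambient temperature. Full response was set by 57 uM dopamine.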
TRPML1 blocker: blocks the human TRPML1 channel; Q9GZU1; TRPML1-inducible cells, Ca2+ dye fluorescence, FDSS; active compounds read low; inhibition of EC80 agonist-evoked calcium signal; activity change, negative = inhibition, % (test concentration not listed); 0.02% of 390,000 active; AID 624415; in the data active means activity change below about -50%; inconclusive means about -30% to -50%; inactive means above about -30%;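 further: stimulus is agonist 54-4 at its EC80 concentration; on the % scale 0 is the no-effect control and ±100 the full control effect; compound concentration not given in the record; the text of the record puts the active cut at -80%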
Target sequence (Q9GZU1 whole entry, looked up): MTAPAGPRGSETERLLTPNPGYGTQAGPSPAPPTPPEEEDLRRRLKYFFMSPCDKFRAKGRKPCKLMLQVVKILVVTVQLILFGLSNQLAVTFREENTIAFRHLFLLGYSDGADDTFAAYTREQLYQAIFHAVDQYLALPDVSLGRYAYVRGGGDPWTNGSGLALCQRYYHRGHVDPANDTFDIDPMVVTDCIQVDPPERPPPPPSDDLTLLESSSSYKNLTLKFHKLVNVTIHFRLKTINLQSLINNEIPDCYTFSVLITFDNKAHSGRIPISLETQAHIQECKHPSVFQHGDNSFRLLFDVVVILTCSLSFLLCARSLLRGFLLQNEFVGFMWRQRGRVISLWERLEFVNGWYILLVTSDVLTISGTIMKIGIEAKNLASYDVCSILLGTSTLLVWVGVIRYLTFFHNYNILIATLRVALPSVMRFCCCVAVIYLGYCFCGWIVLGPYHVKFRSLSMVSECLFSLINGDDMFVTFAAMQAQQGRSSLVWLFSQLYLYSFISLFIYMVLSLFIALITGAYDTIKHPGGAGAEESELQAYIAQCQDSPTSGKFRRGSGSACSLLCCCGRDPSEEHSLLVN
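TRPML1-DL cells, Tet-induced overnight (~16 h, 37 °C) at 1,500 cells/well, were loaded with Ca8 no-wash dye plus quencher for 45-90 min at room temperature. Compounds were pinned during FDSS kinetic reading; agonist 54-4 at EC80 (4 uM final) then added.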
TRPV1 potentiator: human TRPV1 potentiation; Q8NER1; TRPV1-expressing cells, Fluo-8 calcium influx, capsaicin EC20 potentiation; host cell line not named in the record; control for the full effect not named in the record; potentiation, % at 8.33 µM; 0.02% of 320,000 active; AID 540277; active means potentiation above 80%; inconclusive means 30% to 80%; inactive means below 30%; further: 0% is about no effect
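Cells expressing TRPV1 were dye-loaded with Fluo-8 and read kinetically: 10 s baseline, 3 min after compound (agonist portion), then 2 min after EC20 capsaicin (allosteric enhancer portion). Calcium-bound dye fluorescence at 480/520 nm.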
Six1-Eya2 blk: Six1/Eya2 interaction inhibition | Q15475+O00167 | AlphaScreen GST-Six1/His-Eya2 binding, biochemical; active compounds read low; control for the full effect not named in the record | activity change, % (concentration not given with the values) | 0.56% of 360,000 active | AID 651725; in the data active = activity change below about -65%; inconclusive = about -30% to -65%; inactive = above about -30%; further: on the % scale 0 is the no-effect control and ±100 the full control effect
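Homogeneous AlphaScreen proximity assay pairing GST-Six1 with His-tagged Eya2 (added as 5X mix: 250 nM and 500 nM) in 50 mM Tris pH 8.0, 300 mM NaCl, 1 mM TCEP. Glutathione donor and nickel acceptor beads; 1 h, 37 °C, dark.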
CtBP-E1A inh: blocks the CtBP interaction with E1A; activity change, % (concentration not given with the values); AlphaScreen GST-E1A/His-CtBP binding, 1536-well; active compounds read low; control for the full effect not named in the record; 0.49% of 340,000 active; in the data active means activity change below about -65%; inconclusive means about -30% to -65%; inactive means above about -30%; further: on the % scale 0 is the no-effect control and ±100 the full control effect
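Steps: dispense buffer (Tris pH 8.0, NaCl 300 mM, TCEP 1 mM, BSA, Tween 20); add 5X protein mix (GST-E1A, His-CtBP, 125 nM each); pin 23 nL compound; 2 h at 37 °C, dark; add 5X beads (50 ug/mL); 1 h; read.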
TRPML1 ag: agonists of human TRPML1 channel | Q9GZU1 | TRPML1-expressing cells, Ca2+ dye fluorescence, FDSS; host cell line not named in the record; reference of the full effect not given here | activation, % (concentration not given with the values) | 0.12% of 410,000 active | AID 624414; in the data active = activation above about 50%; inconclusive = about 30% to 50%; inactive = below about 30%; further: 0% is about no effect; the text of the record puts the active cut at 80%
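Cells: TRPML1-DL, 1X Tet inducer, ~16 h at 37 degrees C/5% CO2. Dye: ABD Ca8 no-wash + quencher, 45-90 min RT. Read: 10 s baseline, compound add, 110 s agonist phase; 54-4 EC80 (4uM final), 110 s antagonist phase.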
* = called active by the depositor; ? = inconclusive; · = no result given. Rows are unselected, and some 0.95% of all compounds hit somewhere here.

Letter code: A = D2 potentiator; B = TRPML1 blocker; C = TRPV1 potentiator; D = Six1-Eya2 blk; E = CtBP-E1A inh; F = TRPML1 ag
C/C(=N\Nc1nc2c(s1)CCCC2)c1ccc(Cl)cc1
  A: -5 | B: -4 | C: -6 | D: -14 | E: 4 | F: 0.3

CC(=O)c1ccc(-n2nncc2C(C)(C)C)cc1
  A: -18 | B: -5 | C: 4 | D: 0 | E: 12 | F: 0.4

O=C(/C=C/c1ccco1)NCC1CCCO1 (stereo not given)
  A: -9 | B: -10 | C: -3 | D: -3 | E: 1 | F: -1.0

CCOC(=O)Nc1sc(C)nc1-c1ccccc1
  A: 1 | B: -2 | C: -3 | D: -2 | E: 5 | F: -0.5

Cc1ccc(C)c(OCCC(=O)NCCc2ccc(F)cc2)c1
  A: -19 | B: 3 | C: -14 | D: 7 | E: 9 | F: 1.7

CCOc1ccccc1NC(=O)COc1ccc2ccc(=O)oc2c1
  A: -1 | B: -15 | C: 2 | D: 4 | E: -12 | F: 1.6

CC(C)(C)c1ccc(OCC(O)CS(=O)(=O)c2ccccn2)cc1 (stereo not given)
  A: 9 | B: 6 | C: 7 | D: 31 | E: 57 | F: -0.6

Cc1ccc(CN(c2ccc(C(=O)NCC3CCCO3)cc2)S(C)(=O)=O)cc1 (stereo not given)
  A: 7 | B: -4 | C: -10 | D: 7 | E: -2 | F: 2.9

O=C(OCC(=O)N1CCCC1)c1cc2c(cc1[N+](=O)[O-])OCCO2
  A: -10 | B: -6 | C: 20 | D: 4 | E: · | F: 0.0

COc1ccccc1CN1CC(C(=O)NCCc2ccccc2Cl)CCC1=O (stereo not given)
  A: -4 | B: -14 | C: 12 | D: -3 | E: · | F: 3.2

Cc1cc(C)n2nc(SCn3nnc4ccccc4c3=O)nc2n1
  A: -9 | B: 6 | C: 6 | D: 2 | E: 38 | F: 0.0

Cc1nn(S(=O)(=O)N2CCCCC2)c(C)c1Br
  A: -1 | B: -8 | C: 7 | D: -3 | E: -22 | F: -0.1

O=C(c1ccc2oc(CCc3ccccc3)nc2c1)N1CC[C@H](O)C1
  A: -8 | B: -3 | C: -17 | D: 3 | E: · | F: 0.1

COc1cc(OC)cc(-c2nc3ccccc3c(=O)n2OC(=O)c2ccc(Br)cc2)c1
  A: -3 | B: -19 | C: -2 | D: 3 | E: -1 | F: -0.1

COc1ccc(CSc2nnc(NC(C)=O)s2)cc1[N+](=O)[O-]
  A: -5 | B: 7 | C: -1 | D: 5 | E: 4 | F: -0.3

Compound profiles (already shown). Screens in order: D2 potentiator	TRPML1 blocker	TRPV1 potentiator	Six1-Eya2 blk	CtBP-E1A inh	TRPML1 ag
Shown for `COc1ccc(CSc2nnc(NC(C)=O)s2)cc1[N+](=O)[O-]` → -5	7	-1	5	4	-0.3
Shown for `COc1ccccc1CN1CC(C(=O)NCCc2ccccc2Cl)CCC1=O` (stereo not given) → -4	-14	12	-3	·	3.2

More compounds follow.
Letter code: A = D2 potentiator; B = TRPML1 blocker; C = TRPV1 potentiator; D = Six1-Eya2 blk; E = CtBP-E1A inh; F = TRPML1 ag
COc1ccc(-n2nnnc2SC(C)C(=O)NC2CCCC2)cc1 (stereo not given)
  A: -2 | B: 0 | C: 2 | D: 5 | E: · | F: -0.5

CC12CCC(C(=O)N(CSC(=S)N/N=C\c3ccccc3O)C1=O)C2(C)C (stereo not given)
  A: -12 | B: 42 | C: ? | D: -89* | E: -94* | F: -0.7

O=C(OC1CCN(c2ncc(C(F)(F)F)cc2Cl)CC1)c1ccccc1
  A: -3 | B: -2 | C: 9 | D: 10 | E: 4 | F: -1.4

N#CC1=C(N)N=C(SCc2cccc3ccccc23)C(C(N)=O)C12CCCCC2 (stereo not given)
  A: -33 | B: -3 | C: 12 | D: -17 | E: -15 | F: 0.7

Nc1nc2c(nc(Br)n2[C@@H]2O[C@@H]3COP(=O)(O)O[C@H]3[C@H]2O)c(=O)[nH]1
  A: -2 | B: 3 | C: · | D: -1 | E: 5 | F: -0.5

Cc1ccccc1NC(=O)NCCCN1CCN(C2CCCCC2)CC1
  A: -8 | B: -11 | C: 5 | D: 9 | E: -1 | F: -0.1

O=C(CSc1ccc(Cl)cc1)Nn1cnnc1
  A: 27 | B: 2 | C: -2 | D: 4 | E: 2 | F: -0.6

COc1ccccc1CNC(=O)c1cnc2sccn2c1=O
  A: -9 | B: 7 | C: -6 | D: -9 | E: -8 | F: -0.6

O=C(Nc1ccccc1Cl)c1cccc(NC(=O)c2cccs2)c1
  A: -4 | B: -2 | C: -5 | D: -10 | E: -17 | F: 1.0

COC(=O)c1c(NC(=O)c2ccnn2C)sc(C)c1C
  A: 13 | B: -7 | C: · | D: 7 | E: 5 | F: -0.6

COc1nnc(-c2ccc(C)c(S(=O)(=O)NC(C)C)c2)c2ccccc12
  A: -1 | B: · | C: 16 | D: ? | E: -6 | F: ·

CCCSCCCNC(=O)c1ccc(NC(=O)C2=CSCCO2)cc1
  A: -7 | B: 5 | C: -6 | D: -1 | E: -8 | F: 0.2

Cc1ccc(OCC(=O)NCCO)cc1C
  A: 7 | B: 2 | C: -12 | D: 3 | E: 5 | F: 0.9

CCNC(=O)C1(C)CCCN1C(=O)c1cc(OC)c(OC)c(OC)c1 (stereo not given)
  A: -1 | B: · | C: · | D: 21 | E: 30 | F: 0.2

O=C(C1CCN(Cc2ccc(F)cc2)CC1)N1CCN(C/C=C/c2ccccc2)CC1
  A: -11 | B: -10 | C: -8 | D: 9 | E: 12 | F: 0.5

Going on with the list.
Letter code: A = D2 potentiator; B = TRPML1 blocker; C = TRPV1 potentiator; D = Six1-Eya2 blk; E = CtBP-E1A inh; F = TRPML1 ag
Cc1cccc(NC(=O)COC(=O)c2ccc3c(c2)OCO3)c1C
  A: -23 | B: 11 | C: 3 | D: 6 | E: -2 | F: 2.2

CC1(C)Oc2ccc3ccc(=O)oc3c2/C(=C/O)C1=O
  A: -2 | B: -6 | C: -3 | D: 29 | E: -9 | F: -0.4

CCOc1cc(N2CCOCC2)c(OCC)cc1NC(=O)COC(=O)c1ccc(Cl)nc1
  A: -3 | B: -1 | C: · | D: 3 | E: -4 | F: 0.6

Cc1cc2oc(=O)cc(-c3ccccc3)c2c(C)c1-c1ccc(O)cc1
  A: 5 | B: -7 | C: · | D: -5 | E: 2 | F: -0.2

CC(C)(C)N(Cc1ccccc1)C(=O)COC(=O)CCN1C(=O)C2CC=CCC2C1=O (stereo not given)
  A: 30 | B: -1 | C: -10 | D: 0 | E: -1 | F: -0.8

CC1CCc2nc(NC(=O)C3CCCO3)sc2C1 (stereo not given)
  A: 7 | B: 16 | C: -20 | D: -1 | E: 2 | F: 2.1

Cc1c(NC(=O)c2ccc(S(=O)(=O)N3CC(C)OC(C)C3)cc2)c(=O)n(-c2ccccc2)n1C (stereo not given)
  A: -7 | B: 16 | C: 0 | D: -3 | E: · | F: 0.7

Cc1nnc(N2CCOCC2)c2nn(-c3ccccc3)c(C)c12
  A: 19 | B: -5 | C: -10 | D: 7 | E: 0 | F: 0.8

Cc1ccccc1C(=O)N1CCC(C(=O)N(CC(C)C)c2c(N)n(Cc3ccccc3)c(=O)[nH]c2=O)CC1
  A: 0 | B: 20 | C: -1 | D: 7 | E: -3 | F: -0.2

O=C(COC(=O)c1ccc(O)cc1O)Nc1ccc(Cl)cn1
  A: -10 | B: -3 | C: 3 | D: 5 | E: 5 | F: ?

Cc1cccc(CC2SC(N3CCN(c4ccccc4)CC3)=NC2=O)c1 (stereo not given)
  A: -9 | B: 14 | C: -4 | D: -9 | E: -11 | F: 1.5

CN(C)S(=O)(=O)c1ccc(NC(=O)Cc2ccc(S(=O)(=O)N3CCOCC3)s2)cc1
  A: -5 | B: 14 | C: -6 | D: -3 | E: -19 | F: 0.0

CC[C@]12c3[nH]c4ccccc4c3CCN1C(=O)C(CC(=O)NCc1ccco1)C[C@@H]2C(=O)N1CCN(C(=O)C2CC2)CC1 (stereo not given in full)
  A: -7 | B: 6 | C: · | D: 4 | E: 0 | F: 1.1

Cc1ccc2cc(C(c3nnnn3C3CCCC3)N3CCOCC3)c(=O)[nH]c2c1C (stereo not given)
  A: -1 | B: 13 | C: -4 | D: 4 | E: 11 | F: 0.3

O=[N+]([O-])c1cc([N+](=O)[O-])c(Oc2ccc(F)cc2F)cc1NN1CCCCC1
  A: -3 | B: -4 | C: -10 | D: 1 | E: -15 | F: -0.1

For reference, part of the list above:
Letter code: A = D2 potentiator; B = TRPML1 blocker; C = TRPV1 potentiator; D = Six1-Eya2 blk; E = CtBP-E1A inh; F = TRPML1 ag
CCNC(=O)C1(C)CCCN1C(=O)c1cc(OC)c(OC)c(OC)c1 (stereo not given)
  A: -1 | B: · | C: · | D: 21 | E: 30 | F: 0.2

O=C(C1CCN(Cc2ccc(F)cc2)CC1)N1CCN(C/C=C/c2ccccc2)CC1
  A: -11 | B: -10 | C: -8 | D: 9 | E: 12 | F: 0.5

Cc1cccc(NC(=O)COC(=O)c2ccc3c(c2)OCO3)c1C
  A: -23 | B: 11 | C: 3 | D: 6 | E: -2 | F: 2.2

Carrying on.
Letter code: A = D2 potentiator; B = TRPML1 blocker; C = TRPV1 potentiator; D = Six1-Eya2 blk; E = CtBP-E1A inh; F = TRPML1 ag
CC1=C(C(=O)OC(C)C)C(c2cccnc2)C2=C(CC(C)(C)CC2=O)N1 (stereo not given)
  A: -10 | B: 0 | C: -8 | D: 2 | E: 22 | F: 2.7

CCCCn1c(N)c(N(CCOC)C(=O)CC2CCCCC2)c(=O)[nH]c1=O
  A: -19 | B: -2 | C: · | D: -1 | E: 6 | F: 0.6

CN(C)c1ccc(-c2ccnc3c2CC(C)(C(=O)Nc2cccc(Oc4ccccc4)c2)O3)cc1 (stereo not given)
  A: -3 | B: · | C: · | D: ? | E: -19 | F: -0.7

CCCn1c(=S)[nH]c2sc3c(c2c1=O)CCCC3
  A: -8 | B: 8 | C: -4 | D: 5 | E: 1 | F: 1.7

COc1ccc(CN2CCN(C(=O)CC(C)C)CC2)c(OC)c1OC
  A: 9 | B: -6 | C: 2 | D: 0 | E: 14 | F: -0.6

CC1CN(C(=O)CCC(=O)N2CCN(c3cccc(C(F)(F)F)c3)CC2)c2ccccc2O1 (stereo not given)
  A: -14 | B: 2 | C: 9 | D: -6 | E: -9 | F: 0.3

Cn1nc(C(=O)OCC(=O)Nc2ccc(F)cc2Cl)c2ccccc2c1=O
  A: 3 | B: 4 | C: · | D: -5 | E: 4 | F: -0.7

CC(C)(C)c1ccc(OCCNC(=S)NC(=O)c2cccnc2)cc1
  A: 12 | B: -16 | C: 8 | D: -5 | E: 4 | F: 0.6

CCOC(=O)CN(C(=O)CN1CCOCC1)c1ccc(Br)cc1
  A: -3 | B: 5 | C: 24 | D: 2 | E: -1 | F: -0.2

COc1ccc(OC)c(NC(=O)C2(C)CCN2Cc2ccccc2OC(F)F)c1 (stereo not given)
  A: 18 | B: · | C: · | D: -12 | E: -13 | F: 0.4

Cc1cccc(NC(=O)CSCC(=O)Nc2cc(C(F)(F)F)ccc2N2CCOCC2)c1
  A: -8 | B: 3 | C: · | D: 1 | E: 0 | F: -1.0

Screening results: PubChem, National Center for Advancing Translational Sciences (NCATS)
